gsp antag = qHTS for Antagonists of gsp, the Etiologic Mutation Responsible for Fibrous Dysplasia/McCune-Albright Syndrome: qHTS; hit rate 0.4% among 340,000; AID 624288, 2012; Potency, µM (doses to about 76.9 µM), inactives show at the top dose activity change, negative = inhibition, actives largely listed as inhibitors; gsp-mutant cells, cAMP HTRF, 30 min; control for the full effect not named in the record; active = falling curve of any shape with a large fitted effect; inconclusive = falling curve, mostly with a smaller effect; inactive = flat or rising curve; cell line not stated here;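 note: intracellular cAMP measured with PDE inhibitor Ro 20-1724 present during compound exposure; potency is the fitted concentration of half-maximal effect; % is set by controls: 0 for no effect and ±100 for the full control effect; nearly all actives have a fitted effect of over 65% in size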
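Cells in G418 medium, seeded 16-24 h, 37C; buffer exchange to DPBS + 1 mM CaCl2, 0.5 mM MgCl2, 0.05% BSA; cpds in DMSO + […] (300 uM stock), 30 min 37C; HTRF cAMP detection.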
D2 potentiator = Beta-Arrestin HTS for Positive Allosteric Modulators of the Human D2 Dopamine Receptor: Potentiators; DiscoveRx D2 beta-arrestin cells, luminescence, 90 min; 100% = 57 uM dopamine signal; potentiation, % (test concentration not listed); hit rate 0.23% among 360,000; active = potentiation of 50% or more; inconclusive = 30% to 50%; inactive = 30% or less;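 note: compound concentration not given in the record; tested on top of an EC20 dose of dopamine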
Target sequence (P14416 whole entry, looked up): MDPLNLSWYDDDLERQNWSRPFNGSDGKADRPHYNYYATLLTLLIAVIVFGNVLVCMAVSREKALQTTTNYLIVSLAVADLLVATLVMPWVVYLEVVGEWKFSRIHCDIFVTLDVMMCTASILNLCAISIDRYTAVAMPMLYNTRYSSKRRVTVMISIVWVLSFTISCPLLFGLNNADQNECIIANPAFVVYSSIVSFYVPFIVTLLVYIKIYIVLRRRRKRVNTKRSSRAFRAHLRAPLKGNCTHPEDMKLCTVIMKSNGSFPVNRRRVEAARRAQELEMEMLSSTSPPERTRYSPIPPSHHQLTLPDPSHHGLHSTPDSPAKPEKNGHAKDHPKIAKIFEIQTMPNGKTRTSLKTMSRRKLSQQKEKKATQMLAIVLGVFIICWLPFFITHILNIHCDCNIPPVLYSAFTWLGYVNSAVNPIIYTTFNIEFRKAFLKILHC
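PathHunter D2 cells, attached overnight at 37 deg C, received compound in DMSO plus dopamine at EC20 (50 nM final) for 90 min at 37 deg C. Beta-arrestin recruitment was read as luminescence after 1 h with detection reagent at ambient temperature.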
gsp ag = qHTS for Agonist of gsp, the Etiologic Mutation Responsible for Fibrous Dysplasia/McCune-Albright Syndrome: qHTS | hit rate 0.13% among 340,000 | Potency, µM (highest dose often 76.9 µM), for inactives: top-dose activation (cAMP increase), usual class: activators | gsp mutant cells, cAMP HTRF, 30 min; control for the full effect not named in the record; active = well fitted activation curve with a large enough effect; inconclusive = small, poorly fitted or top-dose-only effect, or another doubt; inactive = no such curve, though single readings can be large or run the other way; cell line not stated here;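 note: phosphodiesterase inhibitor Ro 20-1724 added with compounds to block cAMP breakdown; potency is the fitted concentration of half-maximal effect; nearly all actives have a fitted effect of over 60% in size; about a fifth of the inactives were tested at one dose only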
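Cells stably selected in G418 were plated at 2000/well, grown 16-24 hr, then given compounds in DMSO with the PDE inhibitor […] (300 uM solution added) for 30 min at 37C; cAMP was read by HTRF.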
CtBP-E1A blk = qHTS Assay for Inhibitors of the CtBP/E1A Interaction; CtBP / adenovirus E1A interaction (AlphaScreen); AlphaScreen GST-E1A/His-CtBP binding, 1536-well; active compounds read low; control for the full effect not named in the record; activity change, % (no concentration beside the values); hit rate 0.49% among 340,000; AID 651724, 2012; in the data active means activity change below about -65%; inconclusive means about -30% to -65%; inactive means above about -30%; note: % is set by controls: 0 for no effect and ±100 for the full control effect
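GST-E1A and His-tagged CtBP (125 nM each as 5X stock) were preincubated with pin-transferred compound for 2 h at 37 °C in the dark, then glutathione donor and nickel acceptor beads were added for 1 h before AlphaScreen reading.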
D2 agonist = Beta-Arrestin HTS for Positive Allosteric Modulators of the Human D2 Dopamine Receptor: Agonists | hit rate 0.084% among 360,000 | AID 624465, 2012 | activation, % (no concentration beside the values) | DiscoveRx PathHunter D2 beta-arrestin, luminescence, 90 min; 100% = 57 uM dopamine signal | D(2) dopamine receptor (Homo sapiens), P14416; in the data active = activation above about 40%; inconclusive = about 15% to 40%; inactive = below about 15%; note: compound concentration not given in the record; the text of the record calls up to 30% inactive
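Agonist mode: compounds alone added to overnight-plated D2 PathHunter cells for 90 min at 37 C, with 57 uM final dopamine (EC100) defining full response. Beta-arrestin recruitment detected by chemiluminescent reagent, read after 1 h at ambient temperature.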
Six1-Eya2 blk = qHTS Assay for Inhibitors of the Six1/Eya2 Interaction. hit rate 0.56% among 360,000. AlphaScreen GST-Six1/His-Eya2 binding, biochemical; active compounds read low; control for the full effect not named in the record. activity change, % (test concentration not listed). Homeobox protein SIX1 (Homo sapiens) + Protein phosphatase EYA2 (Homo sapiens), …; in the data active = activity change below about -65%; inconclusive = about -30% to -65%; inactive = above about -30%; note: % is set by controls: 0 for no effect and ±100 for the full control effect
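Compounds are tested against tagged Six1 and Eya2 proteins bridged by glutathione donor and nickel acceptor beads; after a one-hour incubation at 37 °C without light, AlphaScreen emission is recorded.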
Active calls of the source: *; ? = inconclusive; · = no result given; [ ] = another dose, or the depositor's remark.

Order of values: gsp ag	CtBP-E1A blk	gsp antag	D2 potentiator	Six1-Eya2 blk	D2 agonist
CCC1Oc2ccc(C)cc2N(CC(=O)N2CCN(c3ccc(F)cc3)CC2)C1=O (centres undefined)
 : 19%	-2	-26%	-9	0	2.9
COc1ccc(C)cc1N1CC(C(=O)OCc2nc(N)nc(Nc3ccccc3C)n2)CC1=O (centres undefined)
 : -1%[15.4 µM]	0	3%	-16	-8	-1.5
Cc1ccccc1NC(=O)Nc1ccccn1
 : 1%	·	?	6	0	-0.3
CC1=NNC(=O)C1CCC(=O)N/N=C/c1ccccc1 (centres undefined)
 : -2%[15.4 µM]	-14	3%	-6	?	-10
CCOC(=O)C1=C(COC(=O)c2cc(OC)c(OC)c(OC)c2)NC(=O)NC1C (centres undefined)
 : -28%	-2	18%	9	-1	-2.5
CCSc1ccccc1C(=O)Nc1cc(OC)c(OC)c(OC)c1
 : 11%[15.4 µM]	-9	4%	-9	-2	-4.9
O=C(NCc1n[nH]c(=S)n1Cc1ccccc1)c1ccc(Cl)cc1Cl
 : -117%[inhibitor]	·	-17%	-9	-7	-7.2
O=C(Cc1ccccc1F)OCC(=O)N1CCc2ccccc21
 : -21%[15.4 µM]	11	2%	-4	8	-4.4
CCN(CC1CCCO1)C(=O)CCc1nnc(CCc2ccc(OC)cc2)o1 (centres undefined)
 : -32%[inhibitor]	12	2%	-11	6	-2.7
CC(C)c1ccc(OCC(=O)NC(C)c2ccccc2)cc1 (centres undefined)
 : -21%[15.4 µM]	12	-10%	-9	16	-2.5
N#Cc1ccc(C(=O)Nc2nc(SCc3ccc(Cl)cc3)n[nH]2)cc1
 : -31%	3	9%	3	-3	0.5
CCN1CCN(c2ccc(S(=O)(=O)N3CCCCC3)cc2NC(=O)/C=C/c2ccc([N+](=O)[O-])cc2)CC1
 : 4%[15.4 µM]	?	-11%	-7	-8	0.3
COCc1c(C(=O)N2CCN(c3ncccn3)CC2)oc2ccccc12
 : 11%	10	10%	0	0	-0.2
Cc1cc2c(c(CO)c1CCO)C(=O)[C@@H](C)[C@@H]2O
 : ·	-2	4%	-32	1	-1.8
COc1ccc(-c2nnc(NC(=O)CSc3ccc(Cl)cc3)s2)cc1OC
 : -1%[15.4 µM]	4	6%	2	8	-0.3
COc1cc(S(=O)(=O)NCCc2ccc3c(c2)OCO3)ccc1-n1cnnn1
 : -18%	-2	-21%	-5	-3	-3.5
COc1ccc(-c2nnc(SCC(=O)N3CCCC3)o2)c(OC)c1
 : 9%[15.4 µM]	-2	4%	2	7	-3.4
Cn1c(SCC(=O)Nc2nccs2)nnc1-c1ccc(S(=O)(=O)N2CCCC2)cc1
 : 16%	-2	-25%	-2	-1	2.1
CCC(C)N(C)C1CCN(C(=S)Nc2cccc(OC)c2)CC1 (centres undefined)
 : -1%[15.4 µM]	2	2%	-6	4	-2.6
NC(=O)C1CCCN(CC(=O)Nc2cc(S(=O)(=O)N3CCOCC3)ccc2N2CCCC2)C1 (centres undefined)
 : ?	·	17%	-5	-2	-2.1

The closing 7 entries of the part before open the next one:
Order of values: gsp ag	CtBP-E1A blk	gsp antag	D2 potentiator	Six1-Eya2 blk	D2 agonist
Cc1cc2c(c(CO)c1CCO)C(=O)[C@@H](C)[C@@H]2O
 : ·	-2	4%	-32	1	-1.8
COc1ccc(-c2nnc(NC(=O)CSc3ccc(Cl)cc3)s2)cc1OC
 : -1%[15.4 µM]	4	6%	2	8	-0.3
COc1cc(S(=O)(=O)NCCc2ccc3c(c2)OCO3)ccc1-n1cnnn1
 : -18%	-2	-21%	-5	-3	-3.5
COc1ccc(-c2nnc(SCC(=O)N3CCCC3)o2)c(OC)c1
 : 9%[15.4 µM]	-2	4%	2	7	-3.4
Cn1c(SCC(=O)Nc2nccs2)nnc1-c1ccc(S(=O)(=O)N2CCCC2)cc1
 : 16%	-2	-25%	-2	-1	2.1
CCC(C)N(C)C1CCN(C(=S)Nc2cccc(OC)c2)CC1 (centres undefined)
 : -1%[15.4 µM]	2	2%	-6	4	-2.6
NC(=O)C1CCCN(CC(=O)Nc2cc(S(=O)(=O)N3CCOCC3)ccc2N2CCCC2)C1 (centres undefined)
 : ?	·	17%	-5	-2	-2.1
Oc1ccc(C[C@@H]2CNCCN2CCCCC2CCCCC2)cc1
 : ·	-7	15%	-10	-4	1.4
CCC(CC)c1nc(C(N)=O)c2[nH]c(=O)n(-c3ccc(OC)c(OC)c3)c2n1
 : 0%	1	0%	4	0	-4.9
Cc1ccc(OCc2cnc(Cl)s2)c(C)c1
 : 0%	44	6%	-5	24	0.7
Cc1cc(NC(=O)OC2CCCCC2)ccc1[N+](=O)[O-]
 : 8%	-4	-11%	-7	3	2.8
Cc1ccccc1OCC(=O)NCCC1=CCCCC1
 : 0%	15	5%	-19	12	0.2
COc1ccc(Nc2nc(N)nc(COc3ccc(OC)cc3)n2)cc1
 : -36%[inhibitor]	4	11%	-1	5	-1.8
COc1ccc(CCC(=O)NNC(=O)c2ccc(OC)cc2)cc1
 : -3%	4	-1%	-8	13	-4.2
N/C(=N\OC(=O)c1ccc(F)cc1)c1cccc([N+](=O)[O-])c1
 : -22%	·	7%	65*	-2	?
COCCCNC(=S)N(Cc1ccccc1)Cc1ccccc1
 : -2%	1	-11%	-12	8	-3.9
Cc1ccc(NC(=S)N2CCC(NC(=O)c3ccc(F)cc3)CC2)cc1C
 : -1%[15.4 µM]	0	-37%	-8	16	2.3
COc1ccc(NC(=O)CCCc2c[nH]c3ccccc23)cc1OC
 : -7%	4	9%	0	-1	-1.1
CC(=O)Nc1nnc(SCc2ccc(C(=O)Nc3ccccc3F)cc2)s1
 : 0%	1	-2%	-3	5	3.3
O=C(COC(=O)c1ccc[nH]c1=O)Nc1cc(S(=O)(=O)N2CCCCCC2)ccc1Cl
 : ?	3	7%	-5	0	1.3
O=C(Nn1c(C2CCC2)nc2ccccc2c1=O)C1CCC1
 : -4%	0	-5%	1	10	1.6
CCC(=O)N1CCc2cc(Br)cc(S(=O)(=O)C3(C(=O)OC)CC3)c21
 : -48%[inhibitor]	-15	-2%	-8	-24	-2.9
CC1(C)Cc2c(cnn2-c2ccc(F)cc2)C(NC(=O)CN2CCCCC2=O)C1 (centres undefined)
 : 26%	-20	5%	4	-5	-2.4
CCOC(=O)Cn1nc(-c2ccc(F)cc2)oc1=O
 : -3%	3	-28%	0	3	-4.2
O=C(COC(=O)c1ccco1)NC(c1ccccc1)c1ccccc1
 : 15%	·	2%	-15	1	-0.7
CC(C(=O)Nc1ccccc1C(F)(F)F)N1CCN(C)CC1 (centres undefined)
 : -21%	·	8%	13	-2	-2.1
CNC(=O)c1cc2c(s1)-c1ccccc1CC2
 : 10%	·	-6%	-15	0	-4.9
CC(=O)N1CCc2cc(S(=O)(=O)CCC(=O)N3CCN(c4ccccn4)CC3)ccc21
 : 0%	4	-17%	-5	0	-2.3
O=C(CC(=O)Nc1ccc(Br)cc1)Nc1ccc(Br)cc1
 : 0%	·	6%	-6	5	-1.1
CCCn1c(N)c(C(=O)CSc2nnc(-c3ccoc3C)n2C)c(=O)n(C)c1=O
 : 16%	-3	-1%	-4	-6	-7.0
O=C(Nc1ccc(F)cc1)c1ccc(-n2cncn2)c([N+](=O)[O-])c1
 : 2%[15.4 µM]	6	6%	7	-1	6.8
Cn1nc(C(=O)OCC(=O)Nc2cccc(S(=O)(=O)N3CCCC3)c2)c2ccccc2c1=O
 : 11%	·	?	-9	-6	-0.4
N#CC[C@H](Cc1ccccc1)N1CCN(CCc2ccccc2)CCC1=O
 : 0%	4	6%	-20	0	-2.0
COc1ccc(Cl)cc1NC(=O)CN(C)C(=O)Cc1ccsc1
 : -57%[inhibitor]	1	10%	0	4	1.5
Cc1ccc(Nc2cc(C)nn2-c2nc(C)cc(=O)[nH]2)cc1
 : 5%	-81*	?	-47	-82*	-12
COc1ccc(CCNC(=O)C(=O)NCC2OCCN2S(=O)(=O)c2ccc(F)cc2)cc1OC (centres undefined)
 : ?	0	-3%	-4	-1	0.7
COc1ccc2c(c1)C1NC(=S)N[C@@](C)(O2)C1C(=O)Nc1ccccc1 (some centres undefined)
 : -43%[inhibitor]	-4	9%	6	-4	-7.4
O=C1NC(=S)N/C1=C\C=C\c1ccccc1
 : 14%	4	-4%	-5	2	-3.2
CC1(C)OC2C(CO)OC(n3cnc4c(=S)nc(N)[nH]c43)C2O1 (centres undefined)
 : ·	2	·	-1	2	-6.8
CC(=O)Nc1ccc(C(=O)Nc2ccc3c(c2)OCO3)cc1
 : -16%	-11	-10%	-1	-13	-0.4
CNc1cncc(-c2cccc(O)c2)n1
 : ·	?	·	-4	-22	-3.2
O=C(Nc1nnc(COc2ccc(F)cc2)s1)c1cccs1
 : 5%	1	-1%	-2	2	-2.8
COc1ccc(C2C=C(c3ccccc3)Nc3ncnn32)cc1 (centres undefined)
 : ?	-1	4%	-14	-1	-3.3
Cc1ccc(C2=CC(c3cccs3)n3nnnc3N2)cc1 (centres undefined)
 : -3%[15.4 µM]	4	-1%	-34	4	-3.4
O=C(Cc1cccs1)Nc1nnc(Cc2ccccc2)s1
 : -51%[inhibitor]	0	3%	4	-2	-0.1
COc1ccccc1CSc1ncc(-c2ccc([N+](=O)[O-])cc2)[nH]1
 : 19%	-9	-53%	-13	-14	-4.1
COC(=O)C1CC(O)CN1C(=O)Nc1ccccc1 (centres undefined)
 : ?	14	15%	0	17	-1.6
Cc1ccc(C(=O)NCCCNCCCNC(=O)c2ccc(C)nc2)cn1
 : -17%	1	13%	-2	-1	-3.2

Bioassay records deposited in PubChem BioAssay by National Center for Advancing Translational Sciences (NCATS).
